High-throughput results (PubChem)
NS1 function inh: qHTS Assay for Inhibitors of Influenza NS1 Protein Function; S. cerevisiae slowed by influenza A NS1, growth recovery by OD600; Potency, µM (doses to about 46.1 µM), without a hit: top-dose activity, positive = more growth; 270,000 compounds, 0.4% hits; active means well fitted rising curve with a large enough effect; inconclusive means small, poorly fitted or top-dose-only effect; inactive means no such curve, though single readings can be large or run the other way; also: nearly all actives have a fitted effect of over 50% in size
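OD600 was taken as the measure of yeast growth restored by compound in an NS1-expressing S. cerevisiae strain. Cells had been washed out of glucose medium and diluted 1:100 into galactose -URA medium, pH 6.0.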
Lassa entry inh: qHTS for Inhibitors of binding or entry into cells for Lassa Virus. Lassa virus pseudotype entry inhibition, cell reporter; control for the full effect not named in the record. Potency, µM (series often up to 37.9 µM), without a hit: at the highest dose activity change, negative = inhibition, actives largely listed as inhibitors. 300,000 compounds, 1.2% hits. AID 540256, 2011; active means well fitted inhibition curve with a large enough effect; inconclusive means small, poorly fitted or top-dose-only effect, or effect the other way; inactive means flat fitted curve, though single readings scatter; tested in HEK293 cells; also: % is scaled to controls: 0 for no effect and ±100 for the full control effect; nearly all actives have a fitted effect of over 50% in size; luciferase read-out
Cruzain inh noDet: qHTS Assay for Promiscuous and Specific Inhibitors of Cruzain (without detergent) | purified cruzain, Z-FR-AMC fluorescence, no detergent | Potency, µM, for inactives: max response, negative = inhibition, usual class: inhibitors | 200,000 compounds, 2.3% hits;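 also: plate controls were enzyme without inhibitor for no effect and buffer without enzyme for full effect; nearly all actives have a fitted effect of over 40% in size; top concentration of the series not given in the record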
Target sequence (P25779 123-467 limits assumed): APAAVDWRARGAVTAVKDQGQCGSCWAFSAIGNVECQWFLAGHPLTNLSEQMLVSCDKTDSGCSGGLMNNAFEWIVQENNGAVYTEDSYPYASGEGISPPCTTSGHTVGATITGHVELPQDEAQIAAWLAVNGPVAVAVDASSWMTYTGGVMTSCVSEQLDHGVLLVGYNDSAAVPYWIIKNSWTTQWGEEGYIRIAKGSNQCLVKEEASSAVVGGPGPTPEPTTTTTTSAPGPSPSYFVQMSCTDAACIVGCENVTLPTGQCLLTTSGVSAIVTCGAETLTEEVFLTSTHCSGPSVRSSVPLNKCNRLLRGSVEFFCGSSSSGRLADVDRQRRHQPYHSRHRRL
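Purified cruzain at 1.5 nM, pre-incubated 15 min with compound at room temperature in 100 mM sodium acetate pH 5.5, 5 mM DTT, 0.00005% Triton X-100. Reaction started with 2 uM Z-FR-AMC; AMC fluorescence increase over 60 s gives rate.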
StopGo reporter: High Throughput Screening for Foot and Mouth Disease Virus Antivirals; human cells with a luciferase reporter of 2A StopGo recoding; control for the full effect not named in the record; Potency, µM (top dose mostly 57.9 µM), without a hit: at the top dose signal change, negative = less light; 410,000 compounds, 1.2% hits; AID 1159524, 2015; active = well fitted falling curve with a large enough effect; inconclusive = small, poorly fitted or top-dose-only effect; inactive = no such curve, though single readings can be large or run the other way; tested in HEK293T cells; also: % is scaled to controls: 0 for no effect and ±100 for the full control effect; nearly all actives have a fitted effect of over 45% in size; luciferase light after 4 h
RE007 growth inh: qHTS Assay for Inhibitors of the HIV-1 protein Vpr. 360,000 compounds, 0.21% hits. Potency, µM (titrated, usually from 92.2 µM), for the others: at the top dose activity change, negative = less growth. S. pombe RE007 Vpr strain, BacTiter-Glo ATP luminescence, 24 h; control for the full effect not named in the record; active = well fitted falling curve with a large enough effect; inconclusive = small, poorly fitted or top-dose-only effect; inactive = no such curve, though single readings can be large or run the other way;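 also: % is scaled to controls: 0 for no effect and ±100 for the full control effect; nearly all actives have a fitted effect of over 50% in size; the assay follows cell death caused by Vpr and the record does not say whether a fall means rescue or toxicity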
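Fission yeast strain RE007, carrying one chromosomally integrated HIV-1 vpr copy, was seeded at OD 0.01 in PMG+AL medium with 23 nL pinned compound. After 24 h at 30 °C and 99% humidity, viability was read by BacTiter-Glo luminescence.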
MARV entry inh: qHTS for inhibitors of binding or entry into cells for Marburg Virus. Marburg virus pseudotyped entry inhibition, cell reporter; control for the full effect not named in the record; about a third of the inactives were read at about 46 µM. Potency, µM (top dose mostly 37.8 µM), without a hit: at the highest dose activity change, negative = inhibition, hits mostly inhibitors. 300,000 compounds, 1.8% hits. AID 540276, 2011; active = well fitted inhibition curve with a large enough effect; inconclusive = small, poorly fitted or top-dose-only effect, or effect the other way; inactive = flat fitted curve, though single readings scatter; tested in HEK293 cells; about a fifth of its hits are not listed in these tables; also: % is scaled to controls: 0 for no effect and ±100 for the full control effect; luciferase read-out
Cruzain Triton: qHTS Assay for Promiscuous and Specific Inhibitors of Cruzain (with detergent); purified cruzain, Z-FR-AMC fluorescence, 0.01% Triton; AID 1478, 2009; Potency, µM, for inactives: max response, negative = inhibition, usual class: inhibitors; 200,000 compounds, 0.43% hits; Cruzipain (Trypanosoma cruzi), P25779;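 also: plate controls were neutral wells for no effect and buffer without enzyme for full effect; nearly all actives have a fitted effect of over 40% in size; top concentration of the series not given in the record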
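Read-out: AMC fluorescence (360 nm excitation, 450 nm emission), four reads over 2 min, first-to-third difference used. Conditions: cruzain 1.5 nM, Z-FR-AMC 2 uM, pH 5.5 acetate, 5 mM DTT, 0.01% Triton X-100.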
SARS PLP yeast: qHTS of Yeast-based Assay for SARS-CoV PLP; S. cerevisiae expressing SARS-CoV PLpro, growth rescue; control for the full effect not named in the record; Potency, µM (highest dose often 32.9 µM), without a hit: at the highest dose activity, positive = growth rescue; 330,000 compounds, 0.19% hits; AID 485353, 2010; active means well fitted rising curve with a large enough effect; inconclusive means small, poorly fitted or top-dose-only effect; inactive means no such curve, though single readings can be large or run the other way; also: 0% is about no effect; nearly all actives have a fitted effect of over 55% in size; growth read by luminescence after 48 h
The depositor's hits bear a star; u = inconclusive; x = no result given; & = joins results of further samples; [ ] = remark or other dose. Unless noted, calls follow the shape of the dose curve; as a rule, active = well fitted curve in the direction sought with a large enough effect; inconclusive = small, poorly fitted or top-dose-only effect, or another doubt; inactive = no such curve, though single readings can be large; an effect the other way counts as inactive or inconclusive. Potency is read from the fitted curve at half-maximal effect.

SMILES	NS1 function inh	Lassa entry inh	Cruzain inh noDet	StopGo reporter	RE007 growth inh	MARV entry inh	Cruzain Triton	SARS PLP yeast
CCCc1ccc(S(=O)(=O)N2CCC(c3nnc(-c4cccc(C)c4)o3)CC2)cc1	x	2.3%[46.1 µM]	-4.7%	5.3%	x	-25.5%[46.1 µM]	-8.8%	x
O=C1NN=C(CSc2n[nH]c(=S)s2)CS1	7.4%	x	x	2.3%	6.8%	x	x	0.8%
CNc1nc2c(c(=O)n(C)c(=O)n2C)n1CC(O)COc1ccc(OC)cc1 (configuration not stated)	x	u	3.7%	u	x	x	-4.4%	x
N#CCSc1nnc(-c2ccc(S(=O)(=O)N3CCOCC3)cc2)n1CC1CCCO1 (configuration not stated)	-4.6%	25.3%	-1.5%	4.0%	13.2%	16.8%	3.6%	1.2%
CCOc1ccc(C(NC(=O)c2ccco2)c2ccc(OC)c(OC)c2)cc1 (configuration not stated)	-5.7%	u	14.0%	x	12.3%	-15.3%	-0.8%	9.7%
NC(=O)c1cccnc1Oc1ccccc1	-0.9%	-8.5%	x	9.8%	-14.6%	11.6%[46.1 µM]	x	0.6%
COC(=O)[C@H](CCSC)NC(=O)NCc1ccc(S(N)(=O)=O)cc1	11.3%	u	4.6%	-13.6%	11.6%	4.9%	0.6%	-1.8%
CCCCOc1ccc(C2=CSC3=NCCN23)cc1[N+](=O)[O-]	0.8%	-26.6%	x	-17.8%	-17.6%	22.4µM*	x	-0.7%
O=C(CCS(=O)(=O)c1cccc2nonc12)Nc1ccc(F)cc1F	x	25.8%[46.1 µM]	-5.0%	-0.3%	x	x	-4.2%	x
CC(=O)N1CCCc2cc(S(=O)(=O)Nc3ccc(C)cc3C)ccc21	-17.0%	5.6%	-10.9%	32.5%[activator]	-8.2%	-5.2%	-2.4%	9.2%
CC(NS(=O)(=O)c1ccccc1)C(c1cccs1)N1CCN(c2ccccc2)CC1 (configuration not stated)	-61.8%	u	6.7%	-27.2%	11.0%	u	2.5%	-0.5%
O=C(O)c1ccccc1C(=O)Nc1ccc(S(=O)(=O)Nc2nccs2)cc1	x	x	1.0%&-2.7%	-1.2%&44.0%	-15.5%[18.4 µM]	x	4.7%&0.9%	x
CN(CCc1ccccn1)C(=O)c1cccnc1Oc1ccccc1	2.5%	x	x	-7.3%	7.9%	x	x	0.6%
N#Cc1c(NC2CCCCC2)nc(-c2ccco2)c2c1CCCC2	9.1%	-12.9%	25.1µM*	0.0%	-12.3%	0.2%[46.1 µM]	15.8µM*	2.0%
C=CCN1C(=O)c2ccc(C(=O)N(CC)CC(=O)Nc3ccc(OC)cc3)cc2C1=O	x	5.4%	x	14.6%	9.1%	9.0%[46.1 µM]	x	2.5%
Cc1[nH]nc2c1/C(=N\O)CCC2	x	15.6%	x	-10.9%	-8.5%	10.8%[46.1 µM]	x	-8.4%
COc1cc(C(=O)N2CCN(S(=O)(=O)c3ccc(C)cc3)CC2)ccc1OCc1c(C)noc1C	-1.1%	-21.7%	u	0.0%	-0.4%	-3.5%&-3.5%	0.6%	-0.2%
CN1C(=O)C(C)(C)c2cc(S(=O)(=O)NCC(=O)NCc3ccccc3)ccc21	5.5%	x	x	-22.1%	-18.7%	x	x	-0.3%
O=c1cc(-c2cccc([N+](=O)[O-])c2)[nH][nH]1	u	-11.1%	14.0%	-19.3%	x	0.0%	-2.6%	17.4%
CCc1ccc(C(=O)Nc2ccc3nc(C)ccc3c2)cc1	-4.4%	u	x	20.5%	3.4%	u	x	-1.3%
CCOC(=O)N1CCN(C(=O)COC(=O)c2oc3ccc(OC)cc3c2C)CC1	0.5%	u	x	-13.6%	-2.1%	4.2%	x	3.8%
CCc1ccc(C(=O)Nc2ccc(C)c(NS(C)(=O)=O)c2)cc1	-10.9%	x	x	-9.8%	2.5%	x	x	-1.4%
Cc1ccc(NC(=S)NC(=O)CC2CC(C)(C)OC2=O)cc1 (configuration not stated)	1.4%	x	x	15.7%	-0.5%	x	x	-1.9%
CN(Cc1cnccn1)Cc1ccccc1OCC(O)CN1CCc2ccccc2C1 (configuration not stated)	2.2%	-3.9%[46.1 µM]	x	-20.2%	-7.0%	u	x	0.5%
CCOCCn1c(COc2ccccc2)nc2ccccc21	-48.5%	12.9%	-0.4%	-24.7%	-3.4%	-13.0%	-4.6%	-5.6%
Cc1cc(O)c(Sc2ccc(Cl)cc2)c(=O)[nH]1	x	12.7%[46.1 µM]	x	49.8%[activator]	-9.9%	2.6%[46.1 µM]	x	x
NNc1nc2c(Cl)c(Cl)ccc2s1	-5.0%	7.5%	u	23.1%	u	24.6%	-1.9%	-86.9%
O=C(NNc1ccc([N+](=O)[O-])cc1[N+](=O)[O-])c1ccco1	3.0%	u	x	20µM*	-27.4%	u	x	4.7%
CCCOc1ccc(N2C(=O)CC(N3CCOCC3)C2=O)cc1 (configuration not stated)	-45.6%	6.8%	-1.4%	x	u	12.6%	2.6%	-14.0%
Fc1c(F)c(F)c(N2CCNCC2)c(F)c1F	x	12.6%	x	-10.3%	1.0%	u	x	-6.3%
COc1cc(CNn2nnnc2N)ccc1OCc1c(Cl)cccc1Cl	-4.3%	-22.8%	-10.2%	0.0%	-11.6%	-16.4%	-5.0%	-7.3%
Cc1ccc(C)n1NC(=O)c1cccs1	u	5.4%	-20.2%	-0.9%	-15.3%	14.3%	-1.7%	-1.8%
COc1ccc(/C=N/OCc2ccc(Br)cc2)c(OC)c1	-0.9%	x	x	14.5%	-19.2%	x	x	-3.7%
CCOC(=O)C1=C(C)NC(SCC(N)=O)=C(C#N)C1c1ccncc1 (configuration not stated)	u	7.1%&1.3%	-6.1%	-11.6%&-19.5%	-16.2%&-8.0%	17.0%&-5.3%	-1.0%	-0.1%
CC(C)NC(=O)c1onc(CSc2ccc(Cl)cc2)c1C(=O)NC(C)C	-4.3%	x	x	0.0%	7.4%	x	x	-6.7%
N=C1CCCN1CC(=O)c1ccc(Cl)cc1	-3.4%	21.9%	0.1%	5.0%	-11.2%	u	-2.4%	-6.5%
Cn1c2c(c(=O)n(C)c1=O)C(c1ccc(O)cc1)Nc1ccccc1O2 (configuration not stated)	2.3%	6.5%	-4.5%	7.1%	25.1%	9.3%	-5.4%	5.8%
COc1cc(C)c(C)cc1S(=O)(=O)N1CCN(Cc2ccccc2)CC1	4.3%	1.3%	-6.1%	x	15.7%	-17.2%	2.2%	5.2%
Cc1ccccc1-n1c(SCC(=O)N/N=C/c2c(C)nn(-c3ccccc3)c2C)nc2ccccc2c1=O	14.0%	u	u	-22.7%	16.4%	7.31µM*	-2.7%	0.2%
Cc1ccc(-n2c(Cn3cnc4ccccc43)nnc2SCC(=O)O)cc1	5.4%	21.7%	-7.2%	5.0%	7.2%	-6.8%	2.7%	-2.2%
O=C(CSc1nc2ccccc2[nH]1)NC(=O)NCc1ccco1	-5.5%	-24.9%	-4.7%	-2.7%	1.5%	0.3%	3.0%	-1.4%
Cn1c(CSc2ncccn2)nnc1SCC(=O)N1CCCC1	2.2%	x	x	-11.7%	-11.3%	x	x	10.8%
COc1ccc(CCN(C)C(=S)NC(=O)c2ccc(F)cc2Cl)cc1OC	x	u	x	u	6.3%	-9.8%[46.1 µM]	x	8.8%
Cc1cccc(NC(=O)CSc2nc(=O)n(CCCN3CCOCC3)c3c2CCCC3)c1	x	-29.9%	x	-3.7%	-10.1%	-11.1%	x	x
Cc1cccc(NC(=O)CSc2nc(NS(=O)(=O)c3ccccc3)cc(=O)[nH]2)c1	7.5%	x	x	-10.7%	0.4%	x	x	0.2%
CCOC(=O)c1nc(C)nc(Sc2n[nH]c(-c3ccccc3)n2)c1C	-7.1%	x	x	6.6%	-1.2%	x	x	-0.1%
O=C(NC1(C(F)(F)F)N=C(c2ccccc2)N(C2CCCCC2)C1=O)c1ccc(F)cc1 (configuration not stated)	x	-10.2%[46.1 µM]	-8.0%	0.0%	x	u	-1.9%	x
Cc1ccc2c(=O)cc(C(=O)Nc3ccc(S(=O)(=O)Nc4onc(C)c4C)cc3)oc2c1	-24.6%	-0.2%[46.1 µM]	18.3%	9.2%&6.1%	12.2%	1.6%[46.1 µM]	-8.5%	0.9%
O=C(O)c1cccc(NC(=O)c2cccc(NC(=O)C3CCCO3)c2)c1 (configuration not stated)	2.0%	-25.9%	1.6%	u	1.1%	-20.8%	3.9%	3.5%
COc1ccc(OC)c(NC(=O)CSc2ccnc(=O)[nH]2)c1	x	18.5%[46.1 µM]	-9.5%	2.7%	x	x	-1.3%	x
CCN1CCN(CC(=O)Nc2ccc(S(=O)(=O)N3C(C)CCCC3C)cc2)CC1 (configuration not stated)	3.9%	8.9%	x	4.5%	0.0%	1.6%[46.1 µM]	x	-3.1%
CC1CC1C(=O)OCC(=O)NC(=O)NC12CC3CC(CC(C3)C1)C2 (configuration not stated)	x	-2.1%	x	21.1%	0.8%	u	x	1.5%
Cc1noc(C)c1C(=O)OCC(=O)NCCc1ccc(S(N)(=O)=O)cc1	x	-12.7%	x	-4.6%	-5.4%	-8.2%	x	1.1%
O=C(N/N=C/c1c(O)n(Cc2ccccc2)c(=O)[nH]c1=O)c1ccccc1O	u	u	1.3%	6.8%	16.2%	u	-9.7%	10µM*
Nc1nc(C(F)(F)F)cc(=O)n1N	7.5%	-15.5%	x	-9.3%	-6.2%	-2.1%	x	-4.8%
CC(=O)Nc1c2c(nn1-c1ccc(C)cc1C)CSC2	-2.6%	4.4%	1.9%	x	1.0%	-2.3%	-1.7%	2.6%
